# Mtb MenB inh = M. tuberculosis MenB inhibitors, primary screen, biochemical, absorbance; actives 0.43% (n = 100,000); AID 540299, 2011; MenB enzyme assay, absorbance read-out; some hits fall short of the stated cut; inhibition, %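 (about 12 µg/mL by stock and volumes)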; 1,4-dihydroxy-2-naphthoyl-CoA synthase (Mycobacterium tuberculosis (strain ATCC 25618 / …;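 active = mean of two replicates above 30%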;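 also: 0% = no compound and 100% = wells with inactive enzyme; the first replicate is given; strong numbers were not always called active; inactives centre near -10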
# Target sequence (P9WNP5 whole entry, looked up): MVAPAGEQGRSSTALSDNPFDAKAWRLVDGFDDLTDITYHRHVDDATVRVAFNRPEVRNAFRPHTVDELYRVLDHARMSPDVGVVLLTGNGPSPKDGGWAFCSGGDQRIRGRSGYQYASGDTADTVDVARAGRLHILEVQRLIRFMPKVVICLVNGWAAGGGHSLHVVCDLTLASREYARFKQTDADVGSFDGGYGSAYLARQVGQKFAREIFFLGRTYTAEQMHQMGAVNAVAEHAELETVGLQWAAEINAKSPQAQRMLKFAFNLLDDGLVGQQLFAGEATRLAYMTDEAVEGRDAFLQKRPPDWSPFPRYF
# Polio RdRp inh = poliovirus RdRp elongation inhibitors, primary screen, biochemical, fluorescence polarization, total intensity. actives 0.66% (n = 150,000). Genome polyprotein (Poliovirus type 1 (strain Mahoney)), P03300. poliovirus polymerase elongation; active compounds read low. % elongation, % (compound at 16.7 µg/mL). AID 588519, 2011; in the data active = % elongation below about 90%; also: some results filed as inactive read as strong as hits
# MbtI inh = MbtI salicylate synthase inhibitors, primary screen, biochemical, fluorescence intensity; purified MbtI enzyme, fluorescence intensity read-out; P9WFX0; actives 0.89% (n = 100,000); inhibition, %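 (about 17 µg/mL by stock and volumes)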;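 active = above 50% in both replicates, above 80% if mildly self-fluorescent; inactive = the rest, strongly fluorescent compounds included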;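 also: 0% = mean of negative and 100% = mean of positive controls; one replicate is shown; some compounds called inactive have numbers as strong as hits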
# Target sequence (P9WFX0 whole entry, looked up): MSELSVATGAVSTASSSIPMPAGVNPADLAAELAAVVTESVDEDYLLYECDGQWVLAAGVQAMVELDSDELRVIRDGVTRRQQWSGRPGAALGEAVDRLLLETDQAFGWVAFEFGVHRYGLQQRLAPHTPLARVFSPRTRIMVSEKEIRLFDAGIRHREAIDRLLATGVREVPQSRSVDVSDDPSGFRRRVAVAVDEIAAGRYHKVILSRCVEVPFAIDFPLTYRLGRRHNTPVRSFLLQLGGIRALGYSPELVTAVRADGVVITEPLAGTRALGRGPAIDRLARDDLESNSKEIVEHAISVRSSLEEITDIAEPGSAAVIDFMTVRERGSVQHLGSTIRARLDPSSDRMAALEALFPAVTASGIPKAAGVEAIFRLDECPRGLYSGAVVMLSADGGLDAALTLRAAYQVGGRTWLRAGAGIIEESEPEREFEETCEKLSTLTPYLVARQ
# Polio RdRp inh intensity = second read-out of Polio RdRp inh, no call of its own (marks repeat the call); % elongation; measured here: total intensity read-out; formula for this scale not given here;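 total fluorescence in place of polarization; lower means less elongation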
# The depositor's hits bear a star; · = not tested or not shown; & = joins results of further samples.
SMILES	Mtb MenB inh	Polio RdRp inh intensity	Polio RdRp inh	MbtI inh
O=C=Nc1ccc(Cl)cc1Cl	-12	105	99	-12
O=C(CSc1nc2ccccc2o1)N1c2ccccc2OCC1c1ccccc1 (stereo not drawn)	-26	124	114	1
O=Cc1c2ccc[nH]c-2c2ccccc12	-4	100	101	24
CCOC(=O)CCc1nnc(-c2ccncc2)o1	-35	102	105	-15
CC(C)(C)CC(=O)Nc1nnc(-c2ccccc2)s1	-35	103	102	36
CCOC(=O)c1nn(-c2ccccc2)c(=O)cc1OCC	6	99	104	6
COc1ccc(C2CC(=O)c3cnc(N)nc3C2)cc1OC (stereo not drawn)	9	103	100	4
O=C(O)CSCC(=O)N(c1ccccc1)c1ccccc1	-5	110	107	·
CSc1ccc(C=Nc2ccc(Nc3ccccc3)cc2)cc1	-9	107	103	·
O=C1CCC(C2CCC(=O)N2)N1 (stereo not drawn)	-6	102	99	0
Cn1c(=O)sn(-c2ccccc2)c1=O	3	96	96	100*
NS(=O)(=O)c1ccc2c(c1)Cc1ccccc1-2	-9	102	99	-56
CCc1nnsc1C(=O)O	-19	105	102	7
FC(F)(F)c1ccc(NC2CCCCC2)nc1	-18	101	104	-11
COc1ccccc1N1CCN(C(=O)c2ccco2)CC1	-31	102	103	7
N=C1/C(=C2\Nc3ccccc3S2)CC(=O)N1c1ccccc1	-26	97	101	106
COc1ccc(C2N(c3ccc4c(c3)OCCO4)C(=O)C2(F)F)cc1OC (stereo not drawn)	5	97	108	5
Cc1occc1C(=O)NCc1ccccc1	56*	103	100	1
CCSc1nc2ccccc2n1CC(N)=O	-3	105	103	·
O=C(CCN1C(=O)/C(=C/c2ccc(Cl)cc2)SC1=S)Nc1ccccc1	11	102	102	0

# Single records (already shown). Values in the order: Mtb MenB inh | Polio RdRp inh intensity | Polio RdRp inh | MbtI inh
# NS(=O)(=O)c1ccc2c(c1)Cc1ccccc1-2 is listed with -9 | 102 | 99 | -56
# COc1ccccc1N1CCN(C(=O)c2ccco2)CC1 is listed with -31 | 102 | 103 | 7

# (next part)
SMILES	Mtb MenB inh	Polio RdRp inh intensity	Polio RdRp inh	MbtI inh
CCS(=O)(=O)N1CCCC(c2nc3c(nnn3Cc3ccc(C)cc3)c(=O)[nH]2)C1 (stereo not drawn)	22	103	101	3
COc1ccc(Cl)cc1NC(=O)COC(=O)C12CC3CC(CC(O)(C3)C1)C2	-19	97	104	-7
O=C(Cn1nc(-c2ccc(Cl)cc2)c2ccccc2c1=O)NCCN1CCOCC1	21	103	100	1
CN1/C(=C\C(=O)CN2C(=O)NC3(CCc4ccccc43)C2=O)C(C)(C)c2ccccc21 (stereo not drawn)	-30	201	151	-11
Cc1ccc(S(=O)(=O)N(C2CCCC2)S(=O)(=O)c2ccc(Br)s2)cc1C	-28	105	101	19
Cc1cc(C)c(S(=O)(=O)Nc2cc3c4c(oc3c3ccccc23)CCCC4=O)cc1C	-4	105	101	0
COc1ccc(C(=O)N2C(=O)c3ccc(N)cc3C2=O)cc1	-8	104	100	-8
O=C(Nc1ccc(C(F)(F)F)cc1Cl)c1ccc(Cn2cc(Br)cn2)o1	-21	106	102	-9
Cn1c(CSCc2ccccc2)c(C#N)c2ccccc21	-16	107	107	·
Cc1cccc(NC(=O)CNc2nnnn2-c2ccccc2)c1C	-2	113	104	16
O=C(NCc1ccc(Cl)cc1)c1sc2ccccc2c1Cl	-21	103	102	-1
Cc1cc(C)nc(SCC(=O)NC2=NN=C(c3ccccc3)CS2)n1	1	101	102	0
CC1(C)CCCC2=C1CC1C(=O)N(O)C(=O)C1C2 (stereo not drawn)	-17	100	99	-12
CC(C(=O)OCC(=O)c1ccc2c(c1)OCCO2)N1C(=O)c2ccccc2C1=O (stereo not drawn)	-39	99	103	-7
CCOC(=O)c1[nH]c(=O)[nH]c1COC(=O)CNC(=O)c1ccccc1	-36	101	100	·
Cn1c(-c2ccccc2)c(C(=O)CN2CCOCC2)c2ccccc21	-18	106	102	10
COC(=O)c1sc(C(C)(C)C)cc1NC(=O)Nc1ccc(Cl)cc1	1	100	102	5
CCSC1=C(C#N)C(=O)NCS1	-18	100	99	10
CCN(C(=O)CSc1nnc(C(F)(F)F)n1C)C1=CCCC1	-15	108	106	-8
CCOc1ccc2ccc(=O)oc2c1	-14	98	108	107

# (list continues)
SMILES	Mtb MenB inh	Polio RdRp inh intensity	Polio RdRp inh	MbtI inh
Cn1c2ccccc2c2c3c(c4c5ccccc5n(CCC#N)c4c21)CNC3=O	1	102&102	100&101	-87
NC(=O)C1CCN(C(=O)c2ccc(F)cc2F)CC1	·	104	106	-4
COC(=O)c1c[nH]n2c(=O)c3c(nc12)CCC3	4	99	102	·
CSCCC(N)c1nc2ccccc2[nH]1 (stereo not drawn)	-19	104	103	1
O=C1/C(=N\O)CCc2c1no[n+]2[O-]	-94	96	97	-3
COc1c(O)cccc1-c1nnn(CCC(=O)OCC(=O)c2ccccc2)n1	2	101	101	-19
O=C1N[C@H](C(=O)O)C1Cc1ccccc1 (stereo partly drawn)	-3	100	99	·
Cc1ccc(S(=O)(=O)N2CCC[C@H]2C(=O)OCc2c(C)noc2C)cc1	5	112	103	-13
Cc1cc(=O)[nH]c(NNC(=S)Nc2ccc(Cl)c(F)c2)n1	-30	192	142	75
N#Cc1cccc2cccc(Sc3ccccc3)c12	-3	99	97	4
Cc1ccc2c(c1)CCCN2C(=O)c1cc(C(F)(F)F)cc(C(F)(F)F)c1	-18	109	106	-8
CCCC[C@@H](C=O)NC(=O)[C@H](CC(C)C)NC(=O)OCc1ccccc1	2	101&101	102&102	-11
CCOC(=O)N1CCN(C(C)=C2C(=O)c3ccccc3C2=O)CC1	0	101	100	5
Cc1cc(/C=N/N2CCN(C)CC2)c(C)n1-c1ccc(Cl)cc1	-8	109	103	8
CNC(=O)NC(=O)C(C)Sc1nc2ccccc2n1C1CCCCC1 (stereo not drawn)	-23	97	102	-1
O=S(=O)(Cc1ccc(Cl)cc1)N1CCc2ccccc21	-31	102	100	-18
COc1ccc(Cn2c(SCc3cccc(C(F)(F)F)c3)nc3ncccc3c2=O)cc1	5	100	104	5
O=C(O)COc1ccc(CO)cc1Cl	-2	99	101	8
COc1ccc(S(=O)(=O)N2CCc3ccccc32)cc1C(=O)NCC(c1ccco1)N1CCCC1 (stereo not drawn)	-4	112	102	-11
COc1cc2ccccc2cc1C(=O)NC(C)Cc1ccccc1 (stereo not drawn)	-26	107	103	·

# More compounds.
SMILES	Mtb MenB inh	Polio RdRp inh intensity	Polio RdRp inh	MbtI inh
O=C(C1=C(N2CCCCC2)c2ccccc2S(=O)(=O)N1)c1ccccc1	16	103	100	19
Cc1noc2nc(-c3ccc(Cl)cc3)cc(C(=O)O)c12	-13	101	102	69
CCC1CCCCN1C(=O)Cn1c(SCc2cccc(Cl)c2)nc2ccncc21 (stereo not drawn)	-15	96	101	-8
Cc1ccccc1-n1ncc2c(=O)n(CCN3CCCCC3)cnc21	7	108	101	0
CC1CC(C)CN(S(=O)(=O)c2ccc(C(=O)N3CCOCC3)cc2)C1 (stereo not drawn)	-36	103	103	-4
Cc1ccc(C(c2nnnn2C2CCCC2)N(Cc2cccnc2)CC2CCCO2)cc1 (stereo not drawn)	-34	102	103	-3
COc1ccc(CNC(=O)Cn2c3ccccc3c3nc(=O)cc(C)n32)cc1	-7	96	104	15
CN(c1ccccc1C(=O)NCC1CCCO1)S(C)(=O)=O (stereo not drawn)	16	103	102	-6
N=C1/C(=C2\Nc3ccccc3S2)CC(=O)N1Cc1ccco1	-33	143	142	91
O=C(CNC(=O)c1ccccc1)N=Nc1c(O)[nH]c2ccccc12	-40	104	102	18
Cc1nc2cccnc2n1CCNC(=O)Nc1cccc2ccccc12	27*	106	101	39
C=CCc1ccc(OCCCCCN2CCOCC2)c(OC)c1	0	103	106	1
S=c1oc(-c2ccccc2)nn1CNc1ccccc1Br	-7	97	94	·
Cc1ccccc1NC(=O)Cc1ccccc1	-19	108	103	·
CC(C)(C)c1ccc(C(=O)NCCCn2ccnc2)cc1	-5	104	102	·
N#Cc1ccccc1Cn1c(=O)n(-c2ccc(CC(=O)NCc3ccco3)cc2)c(=O)c2sccc21	7	102	100	-2
CCN1C(=O)N(COC(C)=O)C2C1N(CC)C(=O)N2COC(C)=O (stereo not drawn)	-39	103	105	-8
O=C(CSc1nncs1)N1CCN(C(=O)CSc2nncs2)CC1	-17	93	94	-35
Cc1ccc(SC(C)C(=O)Nc2ccc(CC#N)cc2)cc1 (stereo not drawn)	-9	105	101	-12
CN(C)c1ccc(C(=O)OCC(=O)c2cccs2)cc1	-7	111	103	·

# New compounds follow.
SMILES	Mtb MenB inh	Polio RdRp inh intensity	Polio RdRp inh	MbtI inh
Cc1ccc(C)n1NC(=O)c1ccc(O)cc1	-2	103	101	1
O=C(CSc1nc2c(c(C(F)(F)F)n1)CCCC2)Nc1ccccc1	-36	98	101	2
CC(C)(C)n1nnnc1CN1CCC(NC(=O)Nc2ccc(F)cc2)CC1	8	101	105	-3
Cc1cc(=O)oc2c1ccc1oc(/C(=N/O)c3ccccc3)c(C)c12	-26	99	103	7
O=C(Nc1cc(Cl)ccc1N1CCCC1)c1cccc(S(=O)(=O)N2CCCC2)c1	-5	108	103	-2
Cc1nc2c(C(=O)NCc3ccccc3Cl)c[nH]n2c(=O)c1Cl	-4	102	101	20
C=CCN1C(=O)/C(=C2/SC(C)=C(C)N2CC)SC1=Nc1c(C)n[nH]c1C	-182	100	104	8
O=C(CNC(=O)c1ccccc1F)OC1CCOC1=O (stereo not drawn)	2	99	103	9
Cc1[nH]c(C)c(S(=O)(=O)N2CCCc3ccccc32)c1C(=O)N1CCCC1	-27	102	103	-3
Cc1c(C(=O)Oc2ccc(Cl)cc2)n(C)oc1=O	-10	90	98	2
COc1ccccc1-n1ccnc(SCC(=O)NC2CCCCC2)c1=O	-11	98	102	-27
O=S(=O)(Nc1ccc(N2CCN(c3ncccc3C(F)(F)F)CC2)nc1)c1ccc(Cl)cc1	-5	101	101	16
CN(C)CC(C)(O)c1ccc(Cl)cc1 (stereo not drawn)	·	108	102	12
CC(=O)OCc1ccc(C(=O)Nc2nccs2)cc1	-9	107	101	13
CC1(C)Oc2ccc3ccc(=O)oc3c2/C(=C/N2CCCCC2)C1=O	-27	102	103	20
CC(C)OC(NC(=O)c1ccccc1)(C(F)(F)F)C(F)(F)F	-7	99	102	-12
Cc1c(C(=O)NC2CCCC2)oc2ccc(S(=O)(=O)N(C)C3CCCCC3)cc12	-24	104	106	-1
Cc1ccc(NC(=O)COc2cn(-c3ccccc3)nn2)cc1C	2	107	107	8
Cc1cc(=O)oc2c1C(=O)CC(C)(C)C2	-8	104	100	18
Cc1nc2ccccc2c(=O)n1/N=C/c1ccsc1	-18	100	101	·

# Further structures.
SMILES	Mtb MenB inh	Polio RdRp inh intensity	Polio RdRp inh	MbtI inh
COc1ccc(CC(=O)NC(C)c2nnc(SCC(=O)Nc3cc(C)ccc3OC)n2C)cc1 (stereo not drawn)	-5	101	101	-5
Cn1c(=O)c2[nH]c(=S)[nH]c2n(C)c1=O	6	100	102	-6
N#CCSc1ccc(Br)cc1	·	98	102	6
CC(C)N(CC(N)=O)C(=O)Cc1coc2cc3c(cc12)CCC3	-21	101	106	-4
OC[C@H]1O[C@@H](OCc2ccccc2)[C@H](O)[C@@H](O)[C@@H]1O	-5	110	106	·
COc1cc(C2Nc3cccc4cccc(c34)N2)cc(I)c1O	-35	102	100	2
COc1cccc(OC)c1C(=O)NN	4	95	103	0
COc1cccc(OCCCN2CCNCC2)c1	-14	107	102	1
Cc1oc(-c2ccc(C(=O)NCc3ccco3)cc2)nc1COc1ccccc1	-7	102	105	17
O=C1NNC(=S)Nc2ccccc21	-14	94	96	104
COc1ccc(Cl)cc1CN1CCCCC1	-14	107	110	·
Cc1ccc(-c2nc3sc4nc5ccccc5nc4n3n2)cc1	-4	109	106	·
Cc1ccc(S(=O)(=O)N(Cc2ccccc2)CC(C)C(=O)O)cc1 (stereo not drawn)	-53	103	103	-6
COC(=O)C1CC2C=CC1C2 (stereo not drawn)	-14	103	107	-8
CCOc1ccc(CCNC(=O)C2c3ccccc3C(=O)N3CCc4ccccc4C23)cc1OCC (stereo not drawn)	-22	104	100	-15
CC(=O)Nc1ccc(-c2cn(CC(=O)NN)cn2)cc1	27	101	101	3

# 4 neighbouring entries already listed, for reference:
SMILES	Mtb MenB inh	Polio RdRp inh intensity	Polio RdRp inh	MbtI inh
C=CCN1C(=O)/C(=C2/SC(C)=C(C)N2CC)SC1=Nc1c(C)n[nH]c1C	-182	100	104	8
O=C(CNC(=O)c1ccccc1F)OC1CCOC1=O (stereo not drawn)	2	99	103	9
Cc1[nH]c(C)c(S(=O)(=O)N2CCCc3ccccc32)c1C(=O)N1CCCC1	-27	102	103	-3
Cc1c(C(=O)Oc2ccc(Cl)cc2)n(C)oc1=O	-10	90	98	2
